NS1 function inh: influenza NS1 inhibition; S. cerevisiae slowed by influenza A NS1, growth recovery by OD600; Potency, µM (series often up to 46.1 µM), without a hit: at the highest dose activity, positive = more growth; 270,000 tested, 0.4% active; active means well fitted rising curve with a large enough effect; inconclusive means small, poorly fitted or top-dose-only effect; inactive means no such curve, though single readings can be large or run the other way; further: nearly all actives have a fitted effect of over 50% in size
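Growth recovery, yeast-based: influenza A NS1 expressed in S. cerevisiae causes slow growth, and suppressors are detected by OD600. The parent strain without NS1 is used as positive control.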
Cruzain Triton: blocks cruzain activity in presence of Triton detergent; P25779; purified cruzain, Z-FR-AMC fluorescence, 0.01% Triton; Potency, µM, without a hit: max response, negative = inhibition, usual class: inhibitors; 200,000 tested, 0.43% active;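 further: plate controls were neutral wells for no effect and buffer without enzyme for full effect; nearly all actives have a fitted effect of over 40% in size; top concentration of the series not given in the record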
Target sequence (P25779 123-467 limits assumed): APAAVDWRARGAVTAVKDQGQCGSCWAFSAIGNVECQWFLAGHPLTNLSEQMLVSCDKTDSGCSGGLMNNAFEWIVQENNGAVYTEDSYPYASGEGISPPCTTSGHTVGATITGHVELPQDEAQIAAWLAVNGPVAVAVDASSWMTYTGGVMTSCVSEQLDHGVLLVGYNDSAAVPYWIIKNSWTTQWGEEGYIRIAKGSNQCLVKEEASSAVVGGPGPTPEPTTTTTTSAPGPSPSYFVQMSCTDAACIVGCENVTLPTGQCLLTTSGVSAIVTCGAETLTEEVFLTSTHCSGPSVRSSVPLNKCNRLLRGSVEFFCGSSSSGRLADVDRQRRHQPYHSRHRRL
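Cysteine protease activity tested under reducing, mildly acidic conditions (100 mM sodium acetate pH 5.5, 5 mM DTT) plus 0.01% Triton X-100. Cruzain 1.5 nM; substrate Z-FR-AMC 2 uM; 15 min compound preincubation at room temperature.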
Marburg entry inh: blocks Marburg virus binding to or entry into cells; Marburg virus pseudotyped entry inhibition, cell reporter; control for the full effect not named in the record; about a third of the inactives were read at about 46 µM; Potency, µM (top dose mostly 37.8 µM), inactives show at the top dose activity change, negative = inhibition, hits mostly inhibitors; 300,000 tested, 1.8% active; active = well fitted inhibition curve with a large enough effect; inconclusive = small, poorly fitted or top-dose-only effect, or effect the other way; inactive = flat fitted curve, though single readings scatter; tested in HEK293 cells; about a fifth of its hits are not listed in these tables; further: on the % scale 0 is the no-effect control and ±100 the full control effect; luciferase read-out
RE007 growth inh: less growth of the S. pombe RE007 Vpr strain | AID 651644 | S. pombe RE007 Vpr strain, BacTiter-Glo ATP luminescence, 24 h; control for the full effect not named in the record | 360,000 tested, 0.21% active | Potency, µM (highest dose often 92.2 µM), inactives show top-dose activity change, negative = less growth; active = well fitted falling curve with a large enough effect; inconclusive = small, poorly fitted or top-dose-only effect; inactive = no such curve, though single readings can be large or run the other way;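 further: on the % scale 0 is the no-effect control and ±100 the full control effect; nearly all actives have a fitted effect of over 50% in size; the assay follows cell death caused by Vpr and the record does not say whether a fall means rescue or toxicity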
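Fission yeast strain RE007, carrying one chromosomally integrated HIV-1 vpr copy, was seeded at OD 0.01 in PMG+AL medium with 23 nL pinned compound. After 24 h at 30 °C and 99% humidity, viability was read by BacTiter-Glo luminescence.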
Cruzain noTriton: blocks cruzain activity in detergent-free assay; P25779; purified cruzain, Z-FR-AMC fluorescence, no detergent; Potency, µM, for inactives: max response, negative = inhibition, actives largely listed as inhibitors; 200,000 tested, 2.3% active;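 further: plate controls were enzyme without inhibitor for no effect and buffer without enzyme for full effect; nearly all actives have a fitted effect of over 40% in size; top concentration of the series not given in the record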
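Detergent-free condition (0.00005% Triton X-100) in acetate buffer pH 5.5 with DTT. 1.5 nM enzyme and compound were pre-mixed 15 min, then 2 uM Z-FR-AMC substrate added; reaction progress from fluorescence change between first and third reads (60 s).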
StopGo reporter: lowers the luciferase signal of an FMDV 2A StopGo reporter; human cells with a luciferase reporter of 2A StopGo recoding; control for the full effect not named in the record; Potency, µM (titrated, usually from 57.9 µM), inactives show top-dose signal change, negative = less light; 410,000 tested, 1.2% active; active = well fitted falling curve with a large enough effect; inconclusive = small, poorly fitted or top-dose-only effect; inactive = no such curve, though single readings can be large or run the other way; tested in HEK293T cells; further: on the % scale 0 is the no-effect control and ±100 the full control effect; nearly all actives have a fitted effect of over 45% in size; luciferase light after 4 h
SARS PLpro yeast: blocks SARS-CoV papain-like protease in a yeast assay; S. cerevisiae expressing SARS-CoV PLpro, growth rescue; control for the full effect not named in the record; Potency, µM (highest dose often 32.9 µM), for inactives: at the top dose activity, positive = growth rescue; 330,000 tested, 0.19% active; active means well fitted rising curve with a large enough effect; inconclusive means small, poorly fitted or top-dose-only effect; inactive means no such curve, though single readings can be large or run the other way; further: 0% is about no effect; nearly all actives have a fitted effect of over 55% in size; growth read by luminescence after 48 h
LASV entry inh: Lassa virus entry inhibition. Potency, µM (top dose mostly 37.9 µM), without a hit: top-dose activity change, negative = inhibition, actives largely listed as inhibitors. AID 540256. 300,000 tested, 1.2% active. Lassa virus pseudotype entry inhibition, cell reporter; control for the full effect not named in the record; active means well fitted inhibition curve with a large enough effect; inconclusive means small, poorly fitted or top-dose-only effect, or effect the other way; inactive means flat fitted curve, though single readings scatter; tested in HEK293 cells; further: on the % scale 0 is the no-effect control and ±100 the full control effect; nearly all actives have a fitted effect of over 50% in size; luciferase read-out
* marks the source's active call; other numbers are inactive results; ? = inconclusive; . = no result given; & = joins results of further samples; [ ] = remark or other dose. Unless noted, the call rests on the fitted dose curve; in most records, active means well fitted curve in the direction sought with a large enough effect; inconclusive means small, poorly fitted or top-dose-only effect, or another doubt; inactive means no such curve, though single readings can be large; an effect the other way counts as inactive or inconclusive. Potency means the concentration at half of the fitted maximal effect.

Values in the order: NS1 function inh | Cruzain Triton | Marburg entry inh | RE007 growth inh | Cruzain noTriton | StopGo reporter | SARS PLpro yeast | LASV entry inh
1: CC(C)CCNC(=O)COc1ccc2c(c1)C(=O)CC(C)(C)O2
  1% | -4.3% | ? | -2% | 15% | 7% | 1% | 0%
2: CCC1Oc2ccccc2N(CC(=O)NCc2cc(OC)ccc2OC)C1=O (stereo unspecified)
  . | 0.6% | . | . | -5% | -11% | . | 0%[46.1 µM]
3: O=C(CC1C(=O)NCCN1C(=O)c1ccc(Cl)cc1)Nc1ccc(F)cc1 (stereo unspecified)
  -8% | . | 1% | 0% | . | -20% | -2% | 10%
4: Brc1ccc(C2Nc3cccc4cccc(c34)N2)o1
  ? | -12% | -9% | 0% | 7.9µM* | . | ? | -1%
5: S=C(Nc1ccccc1Cl)N(Cc1ccccc1)Cc1ccccn1
  . | . | -8%[46.1 µM] | -12% | . | 17% | 0% | 0%
6: Cc1nn(CC(=O)Nc2ccc3c(c2)CCC3)c(C)c1[N+](=O)[O-]
  . | . | -8% | -13% | . | -6% | 6% | -2%
7: CN(c1ccccc1)c1ccc(/C=C(/CCC(=O)O)c2nc3ccccc3s2)cc1[N+](=O)[O-]
  . | . | -24%[46.1 µM] | 3% | . | ? | . | -1%[46.1 µM]
8: O=C(Cc1nnc(NC(=O)Nc2ccccc2)s1)NCc1ccccc1
  10% | -2.1% | . | 14% | -75% | -9% | 11% | .
9: Cc1cc(=O)n(C(C)Cc2ccccc2)n1C(C)Cc1ccccc1 (stereo unspecified)
  . | . | ? | 13% | . | -6% | . | 10%[46.1 µM]
10: O=C(c1ccc(Cl)c(S(=O)(=O)N2CCOCC2)c1)N(c1ccccn1)C1CCCCC1
  . | . | 27%[46.1 µM] | -18% | . | -11% | -1% | -13%
11: S=C(NCCc1ccc(Cl)cc1)NCc1ccccc1
  -79% | . | . | -20% | . | 19% | -14% | .
12: N#Cc1c(Nc2ccccc2C(F)(F)F)s[nH]c1=O
  2% | . | 11%[46.1 µM] | 27% | . | -17% | 0% | 0%
13: Cc1ccc(C)c(-c2ccc(=O)n(Cc3ccc(F)cc3Cl)n2)c1
  -9% | -8.6% | ? | 16% | 7% | ? | -11% | ?
14: Cc1ccc(C(C)C)c(OCC(O)CN2CCc3ccccc3C2)c1 (stereo unspecified)
  -18% | . | ? | 0% | . | ? | -1% | ?
15: COc1ccc(-c2csc(NC(=O)CSc3n[nH]c(C)n3)n2)cc1
  12% | . | -9%[46.1 µM] | -6% | . | 10% | -3% | -23%[46.1 µM]
16: COc1cccc(C(=O)N(Cc2ccco2)c2ccccn2)c1
  . | 2.4% | -4%[46.1 µM] | . | -8% | 22% | . | 11%[46.1 µM]
17: Cc1sc(N)c(C(=O)c2ccccc2)c1C
  8% | . | -18%[46.1 µM] | -7% | . | -7% | 1% | -2%
18: O=C1CC(N2CCSCC2)C(=O)N1c1ccccc1 (stereo unspecified)
  -2% | . | 2%[46.1 µM] | ? | . | 2% | -5% | -6%[46.1 µM]
19: CN(C)S(=O)(=O)c1ccc(C(=O)NCC(=O)N/N=C/c2ccccc2Cl)cc1
  -6% | . | 9%[46.1 µM] | 2% | . | -3% | 1% | ?
20: C=CCOc1ccc(-c2nc3c(c(=O)[nH]c(=O)n3CCCC)n2C)cc1Br
  -2% | . | ? | 4% | . | -8% | -13% | ?
21: CCOC(=O)N1CCC(N2C(=O)c3ccc(C(=O)Nc4ccc(OC)cc4)cc3C2=O)CC1
  -2% | . | -1%[46.1 µM] | -10% | . | -2% | 2% | 7%[46.1 µM]
22: COC(=O)C1=C(C)NC2=C(C(=O)CC(c3cccs3)C2)C1c1ccsc1 (stereo unspecified)
  -52% | -6.0% | -28% | 0% | 6% | -11% | -1% | ?
23: O=C1NC2C(NC(=O)N2C2CCCCC2)N1C1CCCCC1 (stereo unspecified)
  0% | 5.3% | 21% | 0% | -1% | -13% | 0% | 0%
24: CCOc1ccccc1N1CCN(C(=O)c2c(Cl)cnn2C)CC1
  -7% | . | -4% | -11% | . | -15% | -5% | 3%
25: CCN(CC(=O)Nc1ccc(OC)cc1)CC(=O)Nc1ccc(Br)cc1F
  . | . | ? | 1% | . | 7% | -7% | -2%[46.1 µM]
26: CCC(C)N(C(=O)COC(=O)c1nc(Cl)ccc1Cl)C1CCS(=O)(=O)C1 (stereo unspecified)
  . | . | 27% | -5% | . | 9% | 4% | ?
27: CC(=O)c1ccc(S(=O)c2ccccc2)cc1 (stereo unspecified)
  0% | -0.8% | -2% | 17% | 9% | 2% | 3% | 5%
28: O=C(Nc1ccccc1)c1ccc2c(c1)OCCO2
  -176% | -2.4% | ? | 0% | -2% | 6% | -14% | ?
29: CCOc1ccc(C2=Nn3c(nnc3-c3ccccc3)SC2)cc1Cl
  11% | 1.2% | ? | 2% | 20µM* | 11% | 5% | 3%
30: CC(C)CCNc1nc2c(c(=O)n(Cc3cccc(F)c3)c(=O)n2C)n1C
  -60% | -5.4% | -27% | 3% | 9% | ? | -5% | -6%

Retrieved one by one from the entries so far:
Values in the order: NS1 function inh | Cruzain Triton | Marburg entry inh | RE007 growth inh | Cruzain noTriton | StopGo reporter | SARS PLpro yeast | LASV entry inh
19: CN(C)S(=O)(=O)c1ccc(C(=O)NCC(=O)N/N=C/c2ccccc2Cl)cc1
  -6% | . | 9%[46.1 µM] | 2% | . | -3% | 1% | ?
29: CCOc1ccc(C2=Nn3c(nnc3-c3ccccc3)SC2)cc1Cl
  11% | 1.2% | ? | 2% | 20µM* | 11% | 5% | 3%

Later entries:
Values in the order: NS1 function inh | Cruzain Triton | Marburg entry inh | RE007 growth inh | Cruzain noTriton | StopGo reporter | SARS PLpro yeast | LASV entry inh
31: COc1ccc(C(=O)/C=C/Nc2ccc(S(N)(=O)=O)cc2)cc1OC
  -2% | . | 0%[46.1 µM] | -10% | . | 7% | -1% | -12%
32: CC1CC(C)(C)NC(=S)N1CC(=O)N1CCN(Cc2ccccc2)CC1 (stereo unspecified)
  . | . | -7% | -11% | . | -5% | 0% | 0%
33: CSCCC(NS(=O)(=O)c1ccc(Br)cc1)C(=O)OCC(=O)NC1CC1 (stereo unspecified)
  . | . | 3%[46.1 µM] | 1% | . | 8% | 0% | 11%
34: Cc1c(NC(=O)Nc2cc(Cl)ccc2Cl)c(=O)n(-c2ccccc2)n1C
  13% | . | 1% | -6% | . | -28% | -1% | 12%
35: CN(C(=O)CSc1ncnc2sc(-c3ccccc3)cc12)C1CCS(=O)(=O)C1 (stereo unspecified)
  6% | . | -25% | -3% | . | -25% | 6% | -4%
36: COc1cccc(NC(=O)c2cccc(N3C(=O)C4CCC(C)CC4C3=O)c2)c1 (stereo unspecified)
  -1% | . | -2%[46.1 µM] | -7% | . | -19% | 0% | -1%[46.1 µM]
37: N#CC1=C(N)N(c2ccc(F)cc2)C2=C(C1c1ccc(O)cc1)S(=O)(=O)CC2 (stereo unspecified)
  . | . | . | -7% | . | -1% | 2% | 1%
38: CCOc1ccc(OCC)c(NS(=O)(=O)c2ccc3c(c2)CCN3C(=O)C2CCC2)c1
  13% | -6.3%&3.2% | -2%[46.1 µM] | 1% | ? | -6% | 2% | ?
39: CCC(C)(C)NC(=O)C(c1ccc(F)cc1)N(Cc1ccc(OC)cc1)C(=O)c1cnccn1 (stereo unspecified)
  0% | . | 1%[46.1 µM] | -7% | . | 64%[activator] | 1% | -3%
40: CC(C)c1ccc(NC2CCCN(C(=O)CCN3CCCO3)C2)cc1 (stereo unspecified)
  0% | . | . | 1% | . | -1% | 2% | .
41: CC(=O)NCc1ccc(-c2csc(-c3cccs3)n2)cc1
  -21% | . | ? | 1% | . | 46%[activator] | -2% | -6%
42: COCCOC(=O)c1c(C)oc2ccc(OC(=O)c3c(OC)cccc3OC)cc12
  -37% | -5.2% | ? | -6% | ? | ? | -5% | ?
43: CCN1C(=S)SC(=O)C1=C1C=C(C)OC(C)=C1
  1% | -5.9% | ? | -5% | -11% | -3% | 3% | 7%
44: Cc1ncc(CN2CCN(Cc3ccc(F)cc3)C(CCO)C2)s1 (stereo unspecified)
  9% | . | 8%[46.1 µM] | -10% | . | -10% | -2% | ?
45: Cc1csc(SCCn2c(Br)nc3c2c(=O)[nH]c(=O)n3C)n1
  -6% | 11% | 6%&6% | 6% | 2% | -6% | -2% | 13%
46: COCCN1CC(C(=O)NCCc2nc(C)c(C)s2)CCC1=O (stereo unspecified)
  2% | . | 7%[46.1 µM] | -12% | . | -1% | ? | ?
47: CCN1CCN(C(=O)c2cc3c(s2)-c2ccccc2S(=O)(=O)C3)CC1
  8% | -4.2% | . | -4% | -2% | 6% | -4% | .
48: COc1cc(NC(=O)CC2C(=O)N(c3cccc(C)c3)C(=O)N2Cc2ccc(F)cc2)cc(OC)c1 (stereo unspecified)
  . | -6.4% | . | . | -6% | -14% | . | ?
49: NC(=O)CN1CCN(C2CC(=O)N(CCc3ccccc3)C2=O)CC1 (stereo unspecified)
  12% | . | ? | -10% | . | -8% | -2% | 26%[46.1 µM]
50: CC1=C(C(=O)Nc2ccccc2)C(c2ccc(F)cc2)n2nc(SCc3cc(C)ccc3C)nc2N1 (stereo unspecified)
  . | 0.5% | . | . | -3% | -17% | . | 18%[46.1 µM]
51: COc1ccc(CNC(=O)c2ccc3nc(-c4ccc(F)cc4)c(-c4ccc(F)cc4)nc3c2)cc1
  . | 2.8% | . | . | 0% | -25% | . | 1%[46.1 µM]
52: C[C@@H](C(=O)N[C@@H](Cc1c[nH]c2ccccc12)C(=O)O)n1nnc2ccccc2c1=O
  10% | . | . | -3% | . | 14% | 1% | .

Given in transposed form: two of the compounds above
27. CC(=O)c1ccc(S(=O)c2ccccc2)cc1 (stereo unspecified)
23. O=C1NC2C(NC(=O)N2C2CCCCC2)N1C1CCCCC1 (stereo unspecified)
compound no.,27,23
NS1 function inh,0%,0%
Cruzain Triton,-0.8%,5.3%
Marburg entry inh,-2%,21%
RE007 growth inh,17%,0%
Cruzain noTriton,9%,-1%
StopGo reporter,2%,-13%
SARS PLpro yeast,3%,0%
LASV entry inh,5%,0%

Screening results deposited in PubChem BioAssay by National Center for Advancing Translational Sciences (NCATS).
